Sa ugtP lethal – growth inhibition of ugtP-null S. aureus, primary screen, RN4220 ugtP deletion, OD600; 16 h; some inactives read as strong as hits; growth inhibition, % (test concentration not listed); hit rate 0.54% among 330,000; AID 1259309, 2017;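 active means z-score under -3 and OD600 up to 0.15 on both plates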;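 further: plate controls were untreated wells for no effect and antibiotic for full effect; wells of about 80 µL received 100 nL stock; the first replicate is given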
PrP UTR inh – inhibition of PrP 5' UTR reporter expression. hit rate 0.35% among 340,000. inhibition, % (no concentration beside the values). cell-based PrP 5' UTR mRNA reporter, plate reader. AID 488862, 2010;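 active means every replicate at 50% or more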;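 further: 0 = median of the neutral control wells; tested in H4 reporter cells; numbers are from one replicate; inactives centre near -14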
RN4220 kill – growth inhibition of S. aureus RN4220, primary screen, OD600. 16 h. inhibition, % (test concentration not listed). hit rate 0.33% among 330,000. AID 1259311, 2017;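 active means z-score of -3 or lower and OD600 up to 0.18 on both plates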;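 further: plate controls were untreated cells for no effect and reference antibiotic for full effect; stock transfer was 100 nL into about 80 µL; one replicate is shown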
BJeLR viability – MLPCN primary cell-based screen for lethality selective to Ras in HRASV12 cells. BJeLR (HRASV12) viability, CellTiter-Glo ATP luminescence, 48 h; reference of the scale not given here. inhibition, % (concentration not given with the values). hit rate 0.17% among 300,000;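 active means replicate mean above 50%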;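 further: 50 nL library stock added to about 25 µL; numbers are from one replicate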
Bead autofluor – counter-screen for toxin protease inhibitors: compound fluorescence. compound autofluorescence counterscreen, microsphere flow cytometry; hits give high values. fluorescence intensity (test concentration not listed). hit rate 3.1% among 360,000;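 active means at least 3 SD above the mean of all compounds, about 16000 in these data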;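 further: 100 nL of 1 mM stock went into each well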
Mtb hypoxia rep – PubChem AID 1159583 | M. tuberculosis hypoxia-regulated fluorescent reporter, fluorescence | fluorescence inhibition, % (test concentration not listed) | hit rate 0.1% among 300,000;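 active means 35 to 45% if threefold the growth effect, above 45% if 1.5-fold the growth effect; inactive means the rest, general growth blockers included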;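 further: wells of about 50 µL received 100 nL stock; 0% = vehicle wells and 100% = reference inhibitor wells; whole bacteria with a GFP reporter of the hypoxia response; strong numbers were not always called active; many hits fall short of the cut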
Mtb hypoxia rep growth – also measured in Mtb hypoxia rep; calls as there; growth inhibition, %; measured here: M. tuberculosis growth (absorbance);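 0% = vehicle and 100% = reference antibiotic; read after six days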
Starred values were filed as active, the others as inactive; . = no result given.

SMILES	Sa ugtP lethal	PrP UTR inh	RN4220 kill	BJeLR viability	Bead autofluor	Mtb hypoxia rep	Mtb hypoxia rep growth
C=C(C)CN(CC)c1ccc(N2C(=O)CCCC2=O)cc1[N+](=O)[O-]	6	-54	3.0	-7	3693	3	-2
COc1ccc(/C=C(\C#N)C(=O)OCC(=O)Nc2c(C)cccc2C(C)C)cc1	-1	-16	4.4	-4	2705	-3	14
Cc1cccc(C)c1NC(=O)NCc1ccco1	9	-18	5.5	1	2873	8	6
CN(C(=O)c1cccc(NC(=O)Cc2ccc(NC(=O)C3CCN(C(=O)C4CCC4)CC3)cc2)c1)C1CCCC1	11	-18	1.2	.	3025	2	-6
COc1ccc([N+](=O)[O-])cc1N(CC(O)CN(CC(C)C)CC(C)C)S(=O)(=O)c1ccc(C)cc1 (stereo not given)	10	-6	1.9	9	3791	-4	-9
COc1cc(NC(=O)CN2C(=O)C(=O)N(CC(C)C)C2=O)cc(OC)c1	3	-16	1.8	.	4416	-11	-1
CC1CN(C(=O)CN2C(=O)c3ccccc3S2(=O)=O)CC(C)O1 (stereo not given)	1	-10	3.9	-2	2710	.	.
CN(C)S(=O)(=O)N1CCC(Oc2ccc(C(=O)NC3Cc4ccccc4C3)cc2)CC1	-5	-17	2.5	20	5914	5	5
CC(C)c1nc2cc(C(=O)N3CCNC(=O)C3c3cccc(F)c3)ccc2o1 (stereo not given)	8	-8	3.0	5	5262	9	8
NS(=O)(=O)c1cccc(NS(=O)(=O)c2ccc3ccccc3c2)c1	2	-18	2.3	5	4010	9	-4
CC(CC(C#N)(c1ccccc1)c1ccccc1)N(C)C (stereo not given)	9	-15	0.8	.	5960	.	.
C=CCN(CC=C)C(=O)CN1C(=O)NC(C)(c2ccc3cc(OC)ccc3c2)C1=O (stereo not given)	7	-12	0.0	-3	3582	12	5
COc1ccc(N(CC(=O)NN=Cc2cccnc2)S(=O)(=O)c2ccc(C)cc2)cc1OC	6	.	1.7	.	.	0	3
Cc1cccc(CN2C(=O)[C@H]3Cc4c([nH]c5ccccc45)C(C)(C)N3C2=O)c1	.	-16	.	-7	4012	.	.
Cc1c(Cl)cccc1NC(=O)COC(=O)Cn1cnc2c1c(=O)n(C)c(=O)n2C	5	-13	-0.7	.	3406	10	6
Cc1nn(Cc2ccc(C(=O)Nc3ccc(C(=O)OC(C)C)cc3)o2)c(C)c1Cl	0	5	8.5	-4	7100	19	11
COc1ccc(-c2c(-c3cc(OC)cc(OC)c3)n(C)c3ccc(-c4ccn[nH]4)cc23)cc1	1	-15	-11	.	3556	-1	0
CCOc1ccc(-n2nnnc2-c2nc3ccccc3s2)cc1	12	-7	1.9	-4	2001	7	6
Cc1nn(-c2nc3ccccc3s2)c(N)c1-c1ccc(Cl)cc1	-4	-55	3.1	3	4918	.	.
COc1ccc(C=C2C(=O)c3ccccc3C2=O)cc1O	7	-34	4.2	-6	4485	-2	2
CC1(C)Cc2c(sc3c2c(=N)n(Cc2ccco2)c(=O)n3CC(=O)Nc2ccccc2)CO1	-7	-20	1.1	2	2211	.	.
COC(=O)c1c(NC(=O)C(=O)N2CCOCC2)sc2c1CCCC2	15	-27	2.8	13	5125	2	0
CCCS(=O)(=O)c1nc(S(=O)(=O)c2ccc(C)cc2)c(N2CCC(C(N)=O)CC2)s1	3	-26	0.7	-4	3929	6	-3
COc1cccc(NC(=O)CCC(=O)N2CC(C)Oc3ccc(C)cc32)c1 (stereo not given)	-5	-2	-11	-3	5427	4	7
O=C(Nc1ccccc1Cl)c1ccc2nc(N3CCOCC3)sc2c1	12	-31	6.3	8	5831	0	-2
CCOC(=O)c1sc2nc(CSc3ccccc3)nc(N3CCC(C(N)=O)CC3)c2c1C	7	-20	-5.6	-1	5560	-1	3
CC(C)Oc1ccc(CNC(=S)NN=Cc2cccnc2)cc1	5	.	-12	.	.	14	1
CN1CCC(N(C)C(=O)c2ccc(Cl)c(S(=O)(=O)Nc3ccc(Cl)cc3)c2)CC1	11	-24	2.9	.	2908	3	-4
Clc1ccc(Cn2nnc(-c3ccc(CN4CCOCC4)cc3)n2)cc1	1	-30	3.0	-21	6910	13	8
Cc1ccc(C2NC(=O)c3c(sc4c3CCN(C)C4)N2)o1 (stereo not given)	2	8	4.7	-2	6820	-4	3
O=C(COC(=O)C1CC1)Nc1ccc([N+](=O)[O-])cc1C(F)(F)F	2	1	3.6	.	8410	-8	8
CCOc1ccc(C(=O)COC(=O)c2cccc(-n3cnnn3)c2)cc1	.	-27	.	-1	5505	.	.
CCOC(=O)c1c(C)oc2c1C(=O)c1ccccc1C2=O	16	-89	20	.	2647	-9	7
CCCN(CC(=O)Nc1ccccc1C)C(=O)c1ccc(S(=O)(=O)N2CCCCCC2)cc1	-4	-4	2.2	20	9317	8	-1
CCOC(=O)CC1c2cc(F)ccc2S(=O)(=O)N1C1CCCC1 (stereo not given)	2	.	1.0	.	.	9	11
C=C(C)C1CC=C(C)C(=NNC(=O)c2ccc(NC(=O)c3cccc(C)c3)cc2)C1 (stereo not given)	-11	.	-4.1	.	.	-16	1
COc1ccc(/C=C/C(=O)O)cc1S(=O)(=O)NCc1ccccc1	1	-11	8.7	8	3256	5	-4
CC1(C)CSC(C)(C)C(=O)N1	5	14	4.1	.	3728	2	7
COc1ccc(N/C(N)=N/c2nc(CSc3ccc(C)cc3)cc(=O)[nH]2)cc1	-5	2	1.9	-3	3445	.	.
COC(=O)CCC(=O)NC(=S)Nc1ccccc1F	16	-25	2.6	-3	4980	1	4

Whole records, quoted from the list:
`C=C(C)C1CC=C(C)C(=NNC(=O)c2ccc(NC(=O)c3cccc(C)c3)cc2)C1` (stereo not given) across the screens: Sa ugtP lethal = -11; PrP UTR inh = .; RN4220 kill = -4.1; BJeLR viability = .; Bead autofluor = .; Mtb hypoxia rep = -16; Mtb hypoxia rep growth = 1
`COc1ccc(N/C(N)=N/c2nc(CSc3ccc(C)cc3)cc(=O)[nH]2)cc1` across the screens: Sa ugtP lethal = -5; PrP UTR inh = 2; RN4220 kill = 1.9; BJeLR viability = -3; Bead autofluor = 3445; Mtb hypoxia rep = .; Mtb hypoxia rep growth = .

Some values from the entries so far.
Reading for CN1CCC(N(C)C(=O)c2ccc(Cl)c(S(=O)(=O)Nc3ccc(Cl)cc3)c2)CC1 in Sa ugtP lethal: 11
Reading for CC1(C)Cc2c(sc3c2c(=N)n(Cc2ccco2)c(=O)n3CC(=O)Nc2ccccc2)CO1 in Sa ugtP lethal: -7
Reading for CCOC(=O)c1sc2nc(CSc3ccccc3)nc(N3CCC(C(N)=O)CC3)c2c1C in RN4220 kill: -5.6

Other results follow.
SMILES	Sa ugtP lethal	PrP UTR inh	RN4220 kill	BJeLR viability	Bead autofluor	Mtb hypoxia rep	Mtb hypoxia rep growth
CCn1c(Cc2ccccc2)nnc1SCC(=O)NC1CC1	1	-28	5.7	-26	9888	5	6
O=C(c1cnc2n(c1=O)CCS2)N1CCN(C(c2ccccc2)c2ccc(Cl)cc2)CC1 (stereo not given)	14	-5	11	17	6220	-15	11
COC(=O)c1ccc(NC(=O)CN2CCCC2)cc1	-13	-9	0.7	8	8509	9	12
CSCCC(NC(=O)c1ccco1)C(=O)NCc1ccc(F)cc1 (stereo not given)	-8	-24	3.9	10	10379	14	15
Cc1cc(C)c2nc(-c3ccccn3)cc(C(=O)NCc3cc(C)n(C)n3)c2c1	2	-7	2.8	-23	4313	15	6
COc1cc(OC)c(OC)cc1CN1CCN(c2ccc(F)cc2)CC1	12	-14	3.2	2	6362	9	4
O=S(=O)([N-]c1nc2ccccc2nc1-n1cc[n+](Cc2ccccc2)c1)c1ccc(Br)cc1	2	.	5.5	23	5934	-9	-15
O=C(NCc1ccco1)c1cc(S(=O)(=O)NC2CC2)ccc1Br	3	-11	5.0	.	3399	8	9
COc1ccc(CC(=O)N2CCN(c3ccccc3)CC2)cc1OC	0	7	1.3	0	4541	4	9
CC(C)NC(=O)C(=O)NNC(=O)C12CC3CC(CC(C3)C1)C2	6	-22	-3.4	-12	2536	.	.
O=C(CSc1ncnc2c1cnn2-c1ccccc1)Nc1ccccc1	8	-16	6.2	0	9866	2	6
CCOC(=O)C1(CC2CC2)CCN(Cc2ccc(C(=O)OC)cc2)CC1	3	-21	2.9	14	4467	13	-1
Cc1ccc2cc(/C=N/NC(=O)c3ccccc3[N+](=O)[O-])c(Cl)nc2c1	.	-6	.	-1	4439	.	.
CC1(C)Cc2c(cnn2-c2ccccc2)C(NC(=O)c2ccoc2)C1 (stereo not given)	5	-16	2.5	7	4339	6	-4
COc1cccc(OCCOCC(O)CN2CCN(Cc3ccc(Cl)cc3)CC2)c1 (stereo not given)	-4	-25	0.5	2	2494	1	13
O=c1[nH]c2ccccc2n2cnnc12	.	-21	.	-4	4636	.	.
COc1ccc(NC(=O)CN2CCN(C3c4ccccc4-c4ccccc43)CC2)cc1	-11	-29	-1.6	7	11657	5	7
Cc1cc(=O)oc(C)c1C(=O)Nc1ccccc1F	4	-6	3.5	9	3404	15	2
O=C(c1ccccc1SCc1ccccc1)N1CCCCCC1	3	-17	9.2	5	2456	4	17
O=C(CNC(=O)c1ccccc1Br)NNC(=O)c1cccs1	-5	-24	-4.2	.	5523	-1	3

Fetched by structure from the list above, four records:
SMILES	Sa ugtP lethal	PrP UTR inh	RN4220 kill	BJeLR viability	Bead autofluor	Mtb hypoxia rep	Mtb hypoxia rep growth
O=C(c1cnc2n(c1=O)CCS2)N1CCN(C(c2ccccc2)c2ccc(Cl)cc2)CC1 (stereo not given)	14	-5	11	17	6220	-15	11
CC(C)NC(=O)C(=O)NNC(=O)C12CC3CC(CC(C3)C1)C2	6	-22	-3.4	-12	2536	.	.
CCOC(=O)C1(CC2CC2)CCN(Cc2ccc(C(=O)OC)cc2)CC1	3	-21	2.9	14	4467	13	-1
CSCCC(NC(=O)c1ccco1)C(=O)NCc1ccc(F)cc1 (stereo not given)	-8	-24	3.9	10	10379	14	15

Screening results as filed in PubChem.

The order is random (roughly 4% active in at least one column).
